TRPML1 ag – qHTS for Agonists of the Human Mucolipin Transient Receptor Potential 1 (TRPML1) | Mucolipin-1 (Homo sapiens), Q9GZU1 | TRPML1-expressing cells, Ca2+ dye fluorescence, FDSS; host cell line not named in the record; reference of the full effect not given here | activation, % (test concentration not listed) | 410,000 tested, 0.12% active | AID 624414, 2012; in the data active = activation above about 50%; inconclusive = about 30% to 50%; inactive = below about 30%; also: 0% is about no effect; the text of the record puts the active cut at 80%
Target sequence (Q9GZU1 whole entry, looked up): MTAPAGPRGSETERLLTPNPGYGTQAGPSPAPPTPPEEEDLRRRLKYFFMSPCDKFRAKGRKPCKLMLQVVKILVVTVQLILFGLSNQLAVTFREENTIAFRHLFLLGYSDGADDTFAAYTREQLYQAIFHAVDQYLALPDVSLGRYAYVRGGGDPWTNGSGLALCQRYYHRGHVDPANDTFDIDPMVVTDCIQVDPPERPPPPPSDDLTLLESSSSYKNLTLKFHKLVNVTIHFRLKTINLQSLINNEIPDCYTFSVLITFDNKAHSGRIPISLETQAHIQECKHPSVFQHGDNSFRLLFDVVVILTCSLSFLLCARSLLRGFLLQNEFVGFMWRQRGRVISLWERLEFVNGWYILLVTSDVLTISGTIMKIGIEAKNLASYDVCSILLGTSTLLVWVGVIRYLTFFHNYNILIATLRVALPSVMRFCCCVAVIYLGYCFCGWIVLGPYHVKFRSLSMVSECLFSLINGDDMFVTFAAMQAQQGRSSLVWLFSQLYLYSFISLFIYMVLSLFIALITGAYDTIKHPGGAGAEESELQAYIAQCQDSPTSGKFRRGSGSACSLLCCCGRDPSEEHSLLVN
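Kinetic FDSS Ca2+ read in Tet-induced TRPML1-DL cells (ABD Ca8 dye plus quencher, 45-90 min RT loading): baseline, then compound, then 110 s agonist window; EC80 agonist 54-4 at 4uM final added afterwards for a 110 s antagonist window.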
TRPML1 blocker – qHTS for Inhibitors of the Human Mucolipin Transient Receptor Potential 1 (TRPML1) | activity change, negative = inhibition, % (test concentration not listed) | TRPML1-inducible cells, Ca2+ dye fluorescence, FDSS; stronger effect = lower value; inhibition of EC80 agonist-evoked calcium signal | Mucolipin-1 (Homo sapiens), Q9GZU1 | 390,000 tested, 0.02% active; in the data active means activity change below about -50%; inconclusive means about -30% to -50%; inactive means above about -30%;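 also: stimulus is agonist 54-4 at its EC80 concentration; % is scaled to controls: 0 for no effect and ±100 for the full control effect; compound concentration not given in the record; the text of the record puts the active cut at -80%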
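Tet-induced TRPML1-DL cells loaded with Ca8 no-wash calcium dye were read kinetically on FDSS. Compound addition was followed by EC80 agonist 54-4 (4 uM final); inhibition was read over 110 s.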
PINK1 modulator – A Quantitative High throughput Screen to Identify Chemical Modulators of PINK1 Expression. PINK1 immunofluorescence, high-content cytometry, 24 h. Potency, µM (highest dose often 76.6 µM), for inactives: at the highest dose activation (PINK1 increase), actives largely listed as activators. 410,000 tested, 0.2% active. AID 624263, 2012; active = well fitted activation curve with a large enough effect; inconclusive = small, poorly fitted or top-dose-only effect; inactive = flat fitted curve, though single readings scatter; cell line not stated here;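 also: potency is read from the fitted curve at half-maximal effect; % of control where 0% means no effect; nearly all actives have a fitted effect of over 65% in size; a mitochondrial uncoupler was the plate control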
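Readout is PINK1 immunofluorescence, quantified alongside mitochondrial, cell and nuclear markers by laser-scanning microplate cytometry. Cells from a stable line were exposed to compound titrations (5 concentrations) for 24 hours, with CCCP controls.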
Six1-Eya2 blk – qHTS Assay for Inhibitors of the Six1/Eya2 Interaction. AlphaScreen GST-Six1/His-Eya2 binding, biochemical; stronger effect = lower value; control for the full effect not named in the record. 360,000 tested, 0.56% active. AID 651725, 2012. activity change, % (test concentration not listed); in the data active = activity change below about -65%; inconclusive = about -30% to -65%; inactive = above about -30%; also: % is scaled to controls: 0 for no effect and ±100 for the full control effect; compound concentration not given in the record
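Compounds are tested against tagged Six1 and Eya2 proteins bridged by glutathione donor and nickel acceptor beads; after a one-hour incubation at 37 °C without light, AlphaScreen emission is recorded.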
D2 PAM – Beta-Arrestin HTS for Positive Allosteric Modulators of the Human D2 Dopamine Receptor: Potentiators; D(2) dopamine receptor (Homo sapiens), P14416; DiscoveRx D2 beta-arrestin cells, luminescence, 90 min; 100% = 57 uM dopamine signal; potentiation, % (test concentration not listed); 360,000 tested, 0.23% active; AID 624464, 2012; active = potentiation of 50% or more; inconclusive = 30% to 50%; inactive = 30% or less;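 also: compound concentration not given in the record; tested on top of an EC20 dose of dopamine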
Target sequence (P14416 whole entry, looked up): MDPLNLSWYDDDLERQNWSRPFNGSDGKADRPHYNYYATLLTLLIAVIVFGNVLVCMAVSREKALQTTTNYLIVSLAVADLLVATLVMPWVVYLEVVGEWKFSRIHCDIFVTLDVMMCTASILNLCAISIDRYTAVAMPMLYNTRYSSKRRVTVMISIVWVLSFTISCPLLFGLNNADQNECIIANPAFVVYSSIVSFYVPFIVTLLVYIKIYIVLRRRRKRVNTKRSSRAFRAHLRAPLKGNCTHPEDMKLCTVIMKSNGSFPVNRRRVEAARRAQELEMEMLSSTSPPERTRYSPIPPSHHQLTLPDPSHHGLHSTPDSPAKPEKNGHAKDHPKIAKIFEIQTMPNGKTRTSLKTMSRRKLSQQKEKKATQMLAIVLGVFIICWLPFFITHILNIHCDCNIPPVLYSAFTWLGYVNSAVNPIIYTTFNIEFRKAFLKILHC
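PathHunter beta-arrestin assay in DiscoveRx D2 cells. Compounds were added with an EC20 of dopamine (50 nM final) for 90 min at 37 deg C. Luminescence was read 1 h after detection reagent, with 57 uM dopamine as the EC100 control.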
D2 ag – Beta-Arrestin HTS for Positive Allosteric Modulators of the Human D2 Dopamine Receptor: Agonists; DiscoveRx PathHunter D2 beta-arrestin, luminescence, 90 min; 100% = 57 uM dopamine signal; activation, % (no concentration beside the values); 360,000 tested, 0.084% active; AID 624465, 2012; in the data active = activation above about 40%; inconclusive = about 15% to 40%; inactive = below about 15%; also: compound concentration not given in the record; the text of the record calls up to 30% inactive
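Agonist mode: compounds alone added to overnight-plated D2 PathHunter cells for 90 min at 37 C, with 57 uM final dopamine (EC100) defining full response. Beta-arrestin recruitment detected by chemiluminescent reagent, read after 1 h at ambient temperature.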
* marks the source's active call; other numbers are inactive results; u = inconclusive; x = not tested or not shown; & = joins results of further samples; [ ] = another dose, or the depositor's remark. Not a hit list; overall some 1% were active at least once.

no. | Compound | D2 PAM | D2 ag | TRPML1 blocker | Six1-Eya2 blk | PINK1 modulator | TRPML1 ag
1 | CCOC(=O)C[C@H]1c2cc(F)ccc2S(=O)(=O)N1Cc1ccc(OC)cc1 | -5 | 0.9 | -8 | 5 | -0.6% | 1.4&-1.0
2 | CC(C)CC(=O)Nc1ncc([N+](=O)[O-])s1 | -4 | -3.0 | 18 | 5 | 0.8% | 0.3
3 | CCOC(=O)c1c(C)nc(C)c(C(=O)OCC)c1-c1ccc(O)c(OC)c1 | -3 | -2.1 | 1 | 7 | 0.1% | 3.6
4 | CCN(CC)S(=O)(=O)c1ccc(C(=O)OC2CCCCC2CN(C)C)cc1 (stereo unspecified) | 1 | -4.5 | 3 | -3 | 6.0%[38.3 µM] | -0.2
5 | CC(C)(C)c1ccc(/C=C(\C#N)C(=O)NCCN2CCOCC2)cc1 | -7 | -4.2 | 4 | 0 | 0.9% | 0.0
6 | O=C(O)C1CC=C(Cl)CC1C(=O)NCC1OCCc2ccccc21 (stereo unspecified) | 4 | -3.1 | 7 | 2 | -1.8% | -0.1
7 | O=C(Nc1nc2ccc(S(=O)(=O)N3CCCCC3)cc2s1)C1CCCO1 (stereo unspecified) | 9 | -0.6 | 1 | 5 | 4.2% | 0.3
8 | O=C1Nc2c(ccc(Cl)c2Cl)C(=O)C1(F)c1ccccc1 (stereo unspecified) | 6 | 1.8 | 39 | 6 | 2.8% | 3.5
9 | O=C(NCCc1ccccc1)C1CCN(Cc2cc3ccccc3n2Cc2cccc(Cl)c2)CC1 | x | x | -8 | x | -0.4% | 1.6
10 | CCc1ccc(C(=O)Cn2ccsc2=N)cc1 | -6 | -1.0 | 21 | 16 | 0.4% | 4.0
11 | CCOc1ccc(-c2nnc(SCc3nnc(-c4ccccc4)o3)n2-c2ccccc2F)cc1 | 15 | -1.3 | 10 | -1 | -2.7% | 1.6
12 | Cc1cc(C)c(S(=O)(=O)NCC(=O)NCc2ccco2)c(C)c1 | -2 | -0.4 | -5 | 5 | -1.2% | 0.0
13 | CCCSc1nsc(NC(=O)Nc2ccc(F)cc2F)n1 | -12 | -3.9 | -5 | -3 | 13µM* | -0.2
14 | Cc1ccc(S(=O)(=O)NCCC(=O)NCC(c2ccc(F)cc2)N2CCOCC2)cc1 (stereo unspecified) | -3 | -2.4 | -9 | 6 | 1.5% | 1.4
15 | COc1cc(CNc2ccc(S(N)(=O)=O)cc2)ccc1OCc1ccccc1F | -3 | 3.0 | 27 | 2 | 6.7% | 0.3
16 | CCOC(=O)C1=C(C)N(CCCCCC(=O)O)C(=O)NC1c1ccccc1OC(=O)c1cccs1 (stereo unspecified) | -3 | 0.7 | -6 | 8 | -1.4% | -0.2
17 | Cc1cccc2cc(CN(CC3CCCO3)C(=O)c3cccs3)c(=O)[nH]c12 (stereo unspecified) | -4 | -3.3 | -12 | -2 | -0.3% | 0.4
18 | CNc1cc(Cl)nc(SC)n1 | -7 | -3.8 | 4 | -1 | -0.7% | -0.7
19 | Clc1ccc(OCCOCCN2CCc3ccccc3C2)c(Cl)c1 | -14 | 0.4 | 19 | -3 | -2.6% | -0.1
20 | CCOC(=O)C1=C(C)NC2=C(C(=O)C(C(=O)OCC)C(c3ccco3)C2)C1c1ccccn1 (stereo unspecified) | -15 | -4.3 | 11 | 4 | -0.2% | 0.0

Laid out differently: 4 of the compounds above
14) Cc1ccc(S(=O)(=O)NCCC(=O)NCC(c2ccc(F)cc2)N2CCOCC2)cc1 (stereo unspecified)
15) COc1cc(CNc2ccc(S(N)(=O)=O)cc2)ccc1OCc1ccccc1F
16) CCOC(=O)C1=C(C)N(CCCCCC(=O)O)C(=O)NC1c1ccccc1OC(=O)c1cccs1 (stereo unspecified)
17) Cc1cccc2cc(CN(CC3CCCO3)C(=O)c3cccs3)c(=O)[nH]c12 (stereo unspecified)

Assay by compound,14,15,16,17
D2 PAM,-3,-3,-3,-4
D2 ag,-2.4,3.0,0.7,-3.3
TRPML1 blocker,-9,27,-6,-12
Six1-Eya2 blk,6,2,8,-2
PINK1 modulator,1.5%,6.7%,-1.4%,-0.3%
TRPML1 ag,1.4,0.3,-0.2,0.4

(further entries)
no. | Compound | D2 PAM | D2 ag | TRPML1 blocker | Six1-Eya2 blk | PINK1 modulator | TRPML1 ag
21 | O=C(c1ccc(CS(=O)c2cccc(Cl)c2)o1)N1CCCCCC1 (stereo unspecified) | -3 | 2.5 | -9 | 4 | 0.8% | 0.2
22 | Cc1ccc(N2CCN(S(=O)(=O)c3ccc4c(c3)n(C)c(=O)c(=O)n4C)CC2C)cc1 (stereo unspecified) | -21 | -4.7 | -19 | 6 | u | 0.0
23 | CC1(C)Cc2c(sc3[nH]c(=S)n(Cc4ccco4)c(=O)c23)CO1 | -6 | 0.4 | 7 | 0 | x | 0.1
24 | CN(C)c1ccc(/C=C(/NC(=O)c2ccccc2)C(=O)N2CCCC2)cc1 | -10 | -2.0 | -2 | -1 | -1.1% | 1.5
25 | O=C(Nc1ccccc1C(=O)Nc1ccc2c(c1)OCO2)c1cccs1 | -11 | -3.5 | -4 | -24 | 1.7% | 0.2
26 | CCOC(=O)c1sc2ccccc2c1NC(=O)c1coc2ccccc2c1=O | -14 | -1.2 | -4 | 1 | 8.0% | 0.2
27 | CCN(CC)S(=O)(=O)c1cccc(NC(=O)c2cc(=O)[nH]c3ccccc23)c1 | -7 | 5.4 | -28 | 0 | 2.0% | 1.3
28 | CCN(CC)S(=O)(=O)c1ccc(C(=O)OCCN2C(=O)c3cccc4c(N5CCOCC5)ccc(c34)C2=O)cc1 | -3 | -5.3 | 0 | -4 | 1.8% | 1.8
29 | CCC1(c2ccccc2)NC(=O)N(CC(=O)N(C)Cc2c(F)cccc2Cl)C1=O (stereo unspecified) | -7 | 1.1 | -8 | -6 | 0.0% | -0.2
30 | Cc1cc(C)c2oc(-c3cccc(NC(=O)COc4ccc([N+](=O)[O-])cc4)c3)nc2c1 | x | x | 1 | x | 1.2% | -0.8
31 | CC1(C)Cc2c(sc3nn[nH]c(=O)c23)CO1 | -9 | -2.8 | -11 | 2 | -0.6% | 0.0
32 | Cc1cc([N+](=O)[O-])ccc1-c1ccc(C2Nc3ccccc3C(=O)N2O)o1 (stereo unspecified) | 10 | 4.2 | 5 | -13 | u | 1.6
33 | Cn1c(SCc2ccccc2Cl)nc(=O)c2c1NC(=O)CC2c1cc(F)ccc1F (stereo unspecified) | x | x | -8 | x | -0.9% | -0.8
34 | CC(C)(C)NC(=O)NC(=O)CSc1cccc(C(F)(F)F)c1 | 1 | -5.8 | 13 | 0 | 7.8% | 2.4
35 | NC(=O)[C@@H]1CCCNc2c(I)cc([N+](=O)[O-])cc2C(=O)N[C@@H](CO)C(=O)NCC(=O)N1 | -10 | -1.6 | 16 | 9 | 0.1% | -0.1
36 | CC1(C)CC(=O)C2=C(C1)N(Cc1ccccc1)C(=O)C2(NC(=O)C(C)(C)C)C(F)(F)F (stereo unspecified) | -12 | 0.1 | -6 | 0 | -1.8% | 0.6
37 | O=C(Cn1cc(S(=O)(=O)N2CCCC2)c(S(=O)(=O)N2CCCC2)c1)Nc1ccccc1 | x | x | 15 | x | 7.2% | -0.1
38 | COc1cccc(/C=N/NC(=O)c2cc(-c3ccccn3)nc3ccccc23)c1O | -5 | 0.0 | -6 | -75* | -0.7% | 0.8
39 | CC1Cc2ccccc2N1C(=O)CSc1nc2ccccc2o1 (stereo unspecified) | -29 | -4.7 | 22 | 4 | 5.0% | 0.7
40 | O=C(NCc1ccc(Cl)cc1)C(=O)N/N=C/c1ccc(Br)cc1 | -9 | -1.2 | 15 | 3 | -3.7% | 0.8

Continuation.
no. | Compound | D2 PAM | D2 ag | TRPML1 blocker | Six1-Eya2 blk | PINK1 modulator | TRPML1 ag
41 | CCOC(=O)C(CC)Sc1nc(N)c(NC(=O)c2ccc(OC)c(OC)c2)c(=O)[nH]1 (stereo unspecified) | -4 | -2.9 | -12 | 0 | 1.2% | 0.2
42 | CCCNS(=O)(=O)c1ccc(OCC(=O)Nc2ccc3c(c2)OCCO3)cc1 | -5 | 1.3 | 4 | -3 | 18%[38.3 µM] | -0.6
43 | Cc1ccc(S(=O)(=O)Cc2cccc(C(=O)N3CCOCC3)c2)cc1 | -10 | -0.2 | 15 | 2 | 0.0% | -0.1
44 | C=CCCN(C(CC(C)C)C(=O)OC)S(=O)(=O)c1ccccc1Br (stereo unspecified) | -5 | -3.7 | -3&1 | 16 | 2.4% | 4.5&1.0
45 | CCN(CCCNC(=O)CCn1c(=O)[nH]c2ccccc2c1=O)c1ccccc1 | -6 | -1.8 | 12 | -4 | -1.7% | -1.0
46 | O=C(Nc1cccc(NC(=O)c2ccc(Cl)cc2Cl)c1)c1cccnc1 | -10 | 2.2 | -3 | -3 | 3.1% | -0.8
47 | COc1ccccc1N(C)S(=O)(=O)c1ccc(Cl)c(C(=O)N2CCC2)c1 | -4 | 0.5 | -4 | 8 | 0.4% | 0.5
48 | Cc1ccccc1OCC(O)CN (stereo unspecified) | -5 | -0.7 | 25 | 5 | -0.4% | 0.3
49 | COC(=O)c1ccc(NC(=S)NC2CCc3ccccc32)cc1 (stereo unspecified) | -6 | 4.9 | -17 | 4 | -1.0% | -0.1
50 | N#CC(C#N)=Cc1cccn1-c1ccc(C(=O)O)cc1 | -4 | 1.9 | -9 | -15 | 1.5% | 0.1
51 | COc1cccc(-c2cc(N3C(=O)Nc4ccccc4N3O)n[nH]2)c1 | 7 | -3.0 | -1 | -1 | 1.6% | -0.6
52 | O=C(NC(=S)Nc1ccccc1Cl)c1cncc(C#Cc2ccccc2)c1 | -6 | -1.7 | 2 | 0 | 9.0% | 0.6
53 | O=S(=O)(c1ccc(-c2ccon2)s1)N1CCOCC1 | -3 | -0.1 | 28 | 11 | -0.2% | 0.4
54 | CC(C)C(=O)NC(=S)/C=C1/N(C)c2ccccc2C1(C)C | -11 | -3.0 | 8 | u | 2.1% | -0.2
55 | O=S(=O)(NCCSc1nnc(-c2ccco2)n1-c1ccccc1)c1ccccc1 | -11 | -1.9 | -16 | -25 | -1.1% | 1.1
56 | Cc1sc2ncnc(N3CCN(Cc4ccccc4)CC3)c2c1-c1ccccc1 | -13 | -2.3 | 55 | 0 | 21% | -0.7
57 | COc1cccc(-c2noc(COc3cccc(C)c3C)n2)c1 | x | x | 1 | x | 1.2% | 1.5
58 | C1CCC(OCCN2CCN(CCOC3CCCCC3)CC2)CC1 | -24 | 1.1 | 5 | 7 | -2.1%[38.3 µM] | 0.6
59 | N#CCc1nc(C(c2ccccc2)c2ccccc2)no1 | -6 | -1.8 | 17 | 16 | 1.7% | -0.1
60 | COc1ccc(-c2nc3c(c(SCc4cc(C)ccc4C)n2)Cc2c(CO)cnc(C)c2O3)cc1 | x | x | 4 | x | -0.4% | 0.2
